From PubChem BioAssay
2A StopGo: FMDV 2A StopGo reporter, luciferase signal; human cells with a luciferase reporter of 2A StopGo recoding; control for the full effect not named in the record; Potency, µM (highest dose often 57.9 µM), inactives show top-dose signal change, negative = less light; 1.2% of 410,000 active; active = well fitted falling curve with a large enough effect; inconclusive = small, poorly fitted or top-dose-only effect; inactive = no such curve, though single readings can be large or run the other way; tested in HEK293T cells; note: nearly all actives have a fitted effect of over 45% in size; luciferase light after 4 h
* hit, by the source's call; ? = inconclusive; [ ] = dose if it differs, or a comment. % is set by controls: 0 for no effect and ±100 for the full control effect; potency is the fitted concentration of half-maximal effect. Only part of the results is shown; rates above refer to the full screens.

SMILES	2A StopGo
O=P(O)(O)C(O)c1ccc2ccccc2c1 (stereo not drawn)	1%
O=C(O)c1ccc(-c2noc(-c3cccc(C(F)(F)F)c3)n2)cc1	19%
CC1(C(=O)O)NCCc2cc(O)c(O)cc21 (stereo not drawn)	-13%
C[C@@H]1CN(Cc2ccc3c(c2)CN(Cc2coc4ccccc4c2=O)CCO3)C[C@H](C)O1	0%
Cc1ccc(CN2C[C@H](Sc3ccccn3)C[C@H]2C(=O)Nc2ccc3sc(C)nc3c2)cc1	4%
OCCNc1nc(Nc2ccccc2C(F)(F)F)nc(N2CCCC2)n1	-27%
Cc1c(C(=O)N2CCCC2)sc2ncnc(NCCc3ccccn3)c12	-4%
Cc1ccc2cc3c(ccc4ccccc43)c3c2c1CC3	-11%
COC(=O)c1c(OCc2ccccn2)cc(=O)n2c1CCN(Cc1cccc(C(F)(F)F)c1)CC2	-15%
CSc1ncccc1C(=O)NCC1Cc2cc(F)cc(-c3cncnc3)c2O1 (stereo not drawn)	-22%
CSc1ccc(C(=O)N2CCc3c(cnc(C)c3CNC(=O)c3cncs3)C2)cc1	11%
NCC(CS(=O)(=O)O)c1ccc(Cl)cc1 (stereo not drawn)	-22%
Cc1cccnc1-c1cccc2c1OC(CNC(=O)C(=O)c1ccccc1)C2 (stereo not drawn)	-10%
COc1cc(=O)n2c(c1C(=O)N(C)Cc1nonc1C)CCN(Cc1cccc3ccccc13)CC2	-5%
COc1ccc(CN2CCCC(n3cc(C(=O)N4CCCCC4)nn3)C2)c(OC)c1C (stereo not drawn)	-4%
O=C(NCC1(N2CCOCC2)CCCC1)c1cnn(-c2nccc(-c3ccco3)n2)c1C1CC1	-21%
Cc1ccc2nc(NC3=NC4(CCCC4)C4=C(CCCC4=O)N3)oc2c1	40µM*
O=C(CN1Cc2ccccc2OC(c2ccccc2)C1)N1CCCCC1c1cccnc1 (stereo not drawn)	1%
COc1ccccc1CN1CCCC(n2cc(C(=O)N3CCCCC3)nn2)C1 (stereo not drawn)	0%
COC(=O)[C@H](Cc1ccc(C#Cc2ccccc2)cc1)NC(=O)C[C@H]1CCCN(C(=N)N)C1	-17%

3 structures already listed, arranged by molecular weight, low to high.
SMILES	2A StopGo
Cc1cccnc1-c1cccc2c1OC(CNC(=O)C(=O)c1ccccc1)C2 (stereo not drawn)	-10%
COc1ccccc1CN1CCCC(n2cc(C(=O)N3CCCCC3)nn2)C1 (stereo not drawn)	0%
O=C(NCC1(N2CCOCC2)CCCC1)c1cnn(-c2nccc(-c3ccco3)n2)c1C1CC1	-21%

Returning to the listing, repeating the 2 entries before the break.
SMILES	2A StopGo
COc1ccccc1CN1CCCC(n2cc(C(=O)N3CCCCC3)nn2)C1 (stereo not drawn)	0%
COC(=O)[C@H](Cc1ccc(C#Cc2ccccc2)cc1)NC(=O)C[C@H]1CCCN(C(=N)N)C1	-17%
CCNC(=O)c1sc2ncnc(NCCCN3CCOCC3)c2c1C	-4%
O=C(NCC1CCC2(CCN(Cc3cnn(-c4ccc(F)cc4)c3)CC2)O1)c1ccccc1 (stereo not drawn)	-6%
CO[C@H]1[C@H](NC(=O)c2ccsc2)c2ccccc2C12CCN(Cc1cc3ccccc3o1)CC2	?
COc1cccc(CN2CCCC(c3nc(C)ncc3-c3ccc(F)cc3)C2)c1OC (stereo not drawn)	-10%
CC(NC(=O)c1cccnc1)c1nnc2n1CCN(Cc1ccc(F)cc1F)CC2 (stereo not drawn)	-6%
COCC(=O)Nc1cc(C(=O)NC2CCCc3ccccc32)c2c(c1)nc(-c1ccncc1)n2C (stereo not drawn)	-8%
COC(=O)c1cccc(C(=O)NCc2nc(-c3ccccc3NC(C)=O)oc2C)c1	14%
Cc1ccccc1-c1cnc(-c2ccncc2)nc1C1CCCN(Cc2ccccc2O)C1 (stereo not drawn)	37%[activator]
COC(=O)c1cn([C@@H]2C[C@@H](C(=O)Nc3cccc(SC)c3)N(C3CCCCCC3)C2)nn1	-12%
CN1CCN(C2=Nc3ccccc3Sc3ccc(Cl)cc32)CC1	10%
CO[C@H]1[C@H](NC(=O)c2ccsc2)c2ccccc2C12CCN(Cc1cnn(C)c1C)CC2	6%
C/C(=C\c1ccco1)CN1CCOc2ccc(C(C)(O)COc3ccccc3)cc2C1 (stereo not drawn)	-8%
CC(C)C(=O)NCC1CCC2(CCN(Cc3ccc(-c4cccc(Cl)c4)o3)CC2)O1 (stereo not drawn)	21%
COc1cccc(CN2CCC(c3nnc(SCC4CCCO4)n3C)CC2)c1O (stereo not drawn)	-5%
Cc1ncc2c(c1CNC(=O)c1ccc3c(c1)OCO3)CCN(C(=O)c1cccc(-n3cccn3)c1)C2	0%
Cc1ccc(C)c(CN2C[C@H](Sc3ccccn3)C[C@H]2C(=O)Nc2ccc3sc(C)nc3c2)c1	-4%
COc1cc(CN2CCOc3ccc(CN4CCN(CCO)CC4)cc3C2)ccc1F	-14%
Cc1cc(C(=O)N(Cc2cc3cc4c(cc3nc2N2CCOCC2)CCC4)CC2CCCO2)c(=O)[nH]c1C (stereo not drawn)	22%
Cc1ccc2nc(-c3ccc(NC(=S)NCCC(C)C)cc3)sc2c1	91%[activator]
CCN(Cc1ccncc1)Cc1ccc2c(c1)CN(C(=O)c1cccc(-n3nc(C)cc3C)c1)CCO2	-1%
C/C=C(\C)C(=O)NCCN1Cc2ccccc2OC(c2ccccc2OC)C1 (stereo not drawn)	16%
CC(C)c1c(C(=O)NCc2ccccn2)cnn1-c1nccc(-c2ccccc2F)n1	-7%
c1ccc(C2CNCc3ccccc32)cc1 (stereo not drawn)	4%
COc1cc(=O)n2c(c1C(=O)N(C)Cc1nonc1C)CCN(Cc1c(F)cccc1F)CC2	-3%
CCCS(=O)(=O)NCc1c(C)ncc2c1CCN(C(=O)/C=C/c1ccc(F)cc1F)C2	3%
CC(=O)Nc1ccccc1-c1nc(CNC(=O)c2ccc(C)cc2)c(C)o1	12%
Nc1c(S(=O)(=O)O)cc(Nc2cccc3ccccc23)c2c1C(=O)c1ccccc1C2=O	-27%
Cc1cc(C)n(CCC(=O)NCC2Cc3cc(Cl)cc(-c4cnccn4)c3O2)n1 (stereo not drawn)	-5%
Cc1ccc2c(c1)Cc1c(C(=O)NC3CCCCC3)nn(-c3ccc(Cl)cc3Cl)c1-2	-24%
O=C(Nc1cc(C(=O)NC2CCOCC2)c2c(c1)ncn2C1CCCC1)c1ccccc1	-7%
O=c1oc(-c2ccc(C(F)(F)F)cc2)nn1Cc1cc(Cl)ccc1O	-7%
CCC1(C2CCN(C(=O)c3coc4c3C(=O)CCC4)CC2)NC(=O)N(CCc2scnc2C)C1=O (stereo not drawn)	11%
CCCCCCCCCc1ccc(OCCOCCO)cc1	11µM*
Cc1oc(-c2ccccc2NC(=O)C2CCCO2)nc1CNC(=O)c1cc(Cl)ccc1F (stereo not drawn)	-9%
CCS(=O)(=O)Nc1cc(C(=O)N2C[C@@H](C)O[C@@H](C)C2)c2c(c1)nc(-c1ccccc1)n2C	-1%
COc1cccc(-c2nc(SC)nc3sc(C(=O)NC(C)(C)C)c(N)c23)c1	-18%
CCc1nc2cc(C(=O)N(C)CC3COCCO3)cc(NC(=O)c3ccccc3OC)c2n1C (stereo not drawn)	-6%
COc1ccc(OC)c(CN2CCC3(CCC(CNC(=O)c4ccco4)O3)CC2)c1 (stereo not drawn)	-8%
CCc1noc(C)c1C(=O)NCCN1Cc2cc(OC)ccc2OC(CC)C1 (stereo not drawn)	23%
COc1ccccc1N1CCN(c2nc(CNC(=O)C3CC34CCCC4)nc3ccccc23)CC1 (stereo not drawn)	-7%
C[C@H](NC(=O)[C@@H](N)Cc1ccc(O)cc1)C(=O)NCC(=O)N(C)[C@@H](Cc1ccccc1)C(=O)N[C@H](CO)CCS(C)=O (stereo partly drawn)	-12%[6.7 µM]
O=C(Cn1cccn1)N1CCOc2c(cc(-c3ncc(C(F)(F)F)cc3Cl)cc2OCC2CCCO2)C1 (stereo not drawn)	-16%
c1ccc2sc(C3(N4CCCC4)CCCCC3)cc2c1	-13%
Cc1ncc2c(c1CNC(=O)c1cncs1)CCN(C(=O)c1ccc(-c3ccccc3)cc1)C2	-5%
Cc1cccc(CN2CCc3nnc(C(C)NC(=O)C4CCOCC4)n3CC2)c1 (stereo not drawn)	-18%
CC(NC(=O)c1ccco1)c1nnc2n1CCN(Cc1ccc(Cl)cc1)CC2 (stereo not drawn)	2%
Cc1cccnc1-c1cccc2c1OC(CNC(=O)Cc1c(C)noc1C)C2 (stereo not drawn)	-7%
CC[C@@H](C)[C@@H](CO[C@@H](Cc1ccccc1)C(=O)N[C@@H](CCS(C)(=O)=O)C(=O)OC(C)C)NC[C@@H](N)CS	-18%[39.8 µM]
CO/N=C(\C(=O)N[C@@H]1C(=O)N2C(C(=O)OCOC(=O)C(C)(C)C)=C(/C=C\c3scnc3C)CS[C@H]12)c1csc(N)n1	1%
COc1ccc(-c2nc3cc(F)ccc3cc2CN(C(=O)c2cccc(OC)c2)C2CC2)cc1	-11%
O=C(NCc1cccnc1)c1cnn(-c2nccc(-c3cccs3)n2)c1C1CC1	-18%
Cc1cnc(-n2ncc(C(=O)N[C@H]3CCCCNC3=O)c2C2CC2)nc1-c1cccs1	-8%
COc1ccccc1-c1ccnc(-n2ncc(C(=O)NCCc3cccnc3)c2C)n1	0%
CC(C)(O)C#Cc1ccc(CN2CCc3nnc(CNC(=O)c4cccc(F)c4)n3CC2)cc1	-6%
Cc1cccc(-c2cnc(C)nc2C2CCCN(C(=O)c3cccc(Cn4cccn4)c3)C2)c1 (stereo not drawn)	-19%
CC(=O)N[C@@H](C)C(=O)NCC1Cc2cc(C)cc(-c3cnccn3)c2O1 (stereo partly drawn)	-10%
Cc1cccnc1-c1cccc2c1OC(CNC(=O)C1CCCc3c1[nH]c1ccccc31)C2 (stereo not drawn)	4%
COc1ccccc1CN1CCC2(CC1)c1ccccc1[C@@H](NC(=O)c1ccco1)[C@@H]2OC	-3%
Cc1ccc2c(c1)CN(CCNC(=O)c1c(-c3ccccc3)noc1C)CC(C)O2 (stereo not drawn)	-10%
COc1cc(C)c(CN2C[C@H](Sc3nc4ccccc4[nH]3)C[C@H]2C(=O)N(C)C)cc1C	-12%

Entries listed so far containing a thiophene ring, fused or not (8):
SMILES	2A StopGo
Cc1c(C(=O)N2CCCC2)sc2ncnc(NCCc3ccccn3)c12	-4%
CCNC(=O)c1sc2ncnc(NCCCN3CCOCC3)c2c1C	-4%
CO[C@H]1[C@H](NC(=O)c2ccsc2)c2ccccc2C12CCN(Cc1cc3ccccc3o1)CC2	?
CO[C@H]1[C@H](NC(=O)c2ccsc2)c2ccccc2C12CCN(Cc1cnn(C)c1C)CC2	6%
COc1cccc(-c2nc(SC)nc3sc(C(=O)NC(C)(C)C)c(N)c23)c1	-18%
c1ccc2sc(C3(N4CCCC4)CCCCC3)cc2c1	-13%
O=C(NCc1cccnc1)c1cnn(-c2nccc(-c3cccs3)n2)c1C1CC1	-18%
Cc1cnc(-n2ncc(C(=O)N[C@H]3CCCCNC3=O)c2C2CC2)nc1-c1cccs1	-8%

Other structures:
SMILES	2A StopGo
COc1cccc(-c2ccc(O)c(CNCc3cccc(OC)c3OC)c2)n1	-3%
COCc1c(C(=O)N2CCC(N(C)C)C2)cnn1-c1ncc2c(n1)-c1ccccc1CCC2 (stereo not drawn)	-9%
COc1cc(=O)n2c(c1C(=O)N(C)Cc1nonc1C)CCN(C(=O)c1ccc(C)c(C)c1)CC2	22%
Cc1cc2c(c(-c3cnccn3)c1)OC(CNC(=O)c1cc(Cl)ccc1F)C2 (stereo not drawn)	-8%
CN1C2CCC1CC(OC(c1ccc(F)cc1)c1ccc(F)cc1)C2 (stereo not drawn)	-11%
Cc1oc(-c2ccccc2NC(=O)C2CCC2)nc1CNC(=O)c1ccc2ccccc2c1	34%[activator]
COc1ccccc1C1CN(Cc2ccccc2O)Cc2ccccc2O1 (stereo not drawn)	-8%
Cc1c(C(=O)N(C)Cc2cccc3ncccc23)cnn1-c1nccc(-c2ccccc2F)n1	-10%
CC1(C)c2[nH]c3ccccc3c2C[C@@H]2C(=O)N(Cc3ccccc3)C(=O)N21	?
COc1ccccc1C(=O)N[C@@H]1c2ccccc2C2(CCN(C(=O)c3csnn3)CC2)[C@H]1OC	-2%
COc1ccc(-c2ccc(C(=O)N3CCc4c(cnc(C)c4CNS(=O)(=O)N(C)C)C3)o2)cc1	0%
O=C(NC1CCCC1)c1cn(C2CCCN(Cc3ccc4c(c3)OCCO4)C2)nn1 (stereo not drawn)	7%
COc1cccc(C2(CC(=O)N3CCC(c4nc5ccccc5o4)CC3)CC(=O)N(C)C2=O)c1 (stereo not drawn)	25%
O=C([C@@H]1C[C@@H](Sc2nc3ccccc3[nH]2)CN1Cc1ccc(C(F)(F)F)cc1)N1CCN(c2ccccc2F)CC1	-13%
Cc1ccccc1CN1CCc2nnc(C(C)NC(=O)C3CCN(C)CC3)n2CC1 (stereo not drawn)	4%
O=C1CCN(Cc2cccc(C(F)(F)F)c2)CCN1Cc1ccccn1	-11%
O=C(NCC1(N2CCOCC2)CCCCC1)c1cnn(-c2nccc(-c3cccs3)n2)c1C1CC1	-16%
CCN1CCCC1CNC(=O)c1cnn(-c2nccc(-c3cccs3)n2)c1C1CC1 (stereo not drawn)	-9%
Cc1c(C(=O)NCc2ccccc2Cl)sc2ncnc(NCC3CCCO3)c12 (stereo not drawn)	-1%
CCn1cc(CN2Cc3ccccc3OC(c3ccccc3OC)C2)c(C)n1 (stereo not drawn)	0%
COc1cc(-c2ccc(Cl)cn2)cc2c1OCCN(S(=O)(=O)C[C@]13CC[C@H](CC1=O)C3(C)C)C2	-3%

Some of the entries so far, bar-delimited.
SMILES | 2A StopGo
O=C(NCC1(N2CCOCC2)CCCCC1)c1cnn(-c2nccc(-c3cccs3)n2)c1C1CC1 | -16%
CN1C2CCC1CC(OC(c1ccc(F)cc1)c1ccc(F)cc1)C2 (stereo not drawn) | -11%
COc1cccc(-c2ccc(O)c(CNCc3cccc(OC)c3OC)c2)n1 | -3%
